Source: PubChem BioAssay
Sa growth 42C – blocks Staphylococcus aureus growth. S. aureus RN4220 growth, OD600, 20 h, 42 °C; hits give low values. relative growth, % (no concentration beside the values). 170,000 tested, 0.53% active;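 active means growth at 42 °C up to 50% and 20 or more points under that at 30 °C, or under 10% at both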;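 further: 300 nL library stock went into each well; scaled to the means of positive and negative controls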
GIV Gai3 FP – inhibitors of GIV GBA-motif binding to rat Galpha-i3 | AID 1224905 | percent of control (FP), % (test concentration not listed) | 210,000 tested, 0.42% active | Galpha-i3/FITC-GIV peptide fluorescence polarization, 90 min; hits give low values; scaled: aluminum fluoride 0%, vehicle 100%;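 active means replicate mean at 85% of control or lower, very high polarization wells dropped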;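 further: wells of about 15 µL received 100 nL stock; the first replicate is given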
Target sequence (P08753 whole entry, looked up): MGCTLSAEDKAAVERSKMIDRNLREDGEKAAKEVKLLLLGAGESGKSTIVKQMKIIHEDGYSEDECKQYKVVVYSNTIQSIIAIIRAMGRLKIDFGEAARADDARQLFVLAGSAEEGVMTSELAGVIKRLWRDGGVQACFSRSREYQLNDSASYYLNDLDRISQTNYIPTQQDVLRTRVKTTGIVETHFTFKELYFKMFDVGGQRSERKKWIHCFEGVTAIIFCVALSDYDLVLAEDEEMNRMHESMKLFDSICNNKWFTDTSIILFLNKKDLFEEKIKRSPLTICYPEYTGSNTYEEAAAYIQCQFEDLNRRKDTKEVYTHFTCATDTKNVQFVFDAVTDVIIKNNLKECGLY
HCMV UL50-53 inh – cytomegalovirus nuclear egress complex inhibition. 190,000 tested, 0.15% active. inhibition, % (no concentration beside the values). AID 1918969. HTRF UL50-UL53 interaction, normalized percent inhibition;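 active means both replicates at 50% or more, plus weaker picks with an unusually low signal ratio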;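 further: stock transfer was 100 nL into about 20 µL; 0% = negative control wells and 100% = wells with untagged competitor protein; inactives centre near -12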
Sa growth 42C second temp – recorded beside Sa growth 42C, whose call it bears; relative growth, %; measured here: growth at 30 °C;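 optical density after 20 h as mean of two plates; 100% = untreated growth and lower means inhibition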
Starred values were filed as active, the others as inactive; . = no result given; & = joins results of further samples.

SMILES	Sa growth 42C	Sa growth 42C second temp	GIV Gai3 FP	HCMV UL50-53 inh
O=C1CCCN1CCCN(CC(=O)N1CCNCC1)S(=O)(=O)c1ccccc1	.	.	103	-7
O=C1Nc2ccc(S(=O)(=O)N3CCCC3)c3cccc1c23	110	84	96	-18
Cc1cccc(-c2nc(C#N)c(NCC(C)C)o2)c1	104	56	97	-9
Cc1ccccc1C(c1c(C)n(C)n(-c2ccccc2)c1=O)c1c(C)n(C)n(-c2ccccc2)c1=O	116	91	106	-14
CCOC(=O)c1c(NC(=O)NCc2cccn2Cc2ccccc2)sc2c1CCCC2	.	.	103	-27
COc1ccc(N2CCN(C(=O)c3c4c(nc5ccccc35)C(=O)N(C3CCCCC3)C4)CC2)cc1	115	100	112	.
CC(C)c1ccc(NC(=O)Cc2nn(C)c(=O)c3ccccc23)cc1	82	87	104	5
CC1(C)CC(=O)c2cc(-c3ccccc3)n(-c3ccc(S(N)(=O)=O)cc3)c2C1	75	90	.	-4
CCC(C)NC(=O)c1ccc2c(=O)n3c(nc2c1)CCCCC3 (stereo unspecified)	103	92	107	-19
O=C(Nc1cccc(F)c1)c1nnc(C(=O)N2CCC(C(=O)NCc3ccc(F)cc3)CC2)s1	.	.	109	-10
COC(=O)C1=C(C)NC(=S)NC1c1cc2c(cc1Br)OCO2 (stereo unspecified)	112	78	105	.
COc1ccc2c(c1OC)C(=O)OC2NC(=O)c1cnn(-c2ccccc2)c1N (stereo unspecified)	93	87	105	.
CCc1ccc(NC(=O)Cn2cnc3c(cnn3-c3ccccc3)c2=O)cc1	97	84	99	.
CCn1c(CN(c2ccc(F)cc2)S(C)(=O)=O)nnc1SCC(=O)c1cn(CC)c2ccccc12	.	.	100	-21
CCOc1ccc(N=CC=C2OC(C)(C)C(C)(C)O2)cc1	115	74	119	.
Nn1c(COc2ccc(F)cc2)n[nH]c1=S	71	90	.	-16
O=c1[nH]c(-c2ccc(O)cc2)nc2ccccc12	147	80	88	-18
COc1ccc(NC(=O)C2=CC(c3ccco3)=NS(=O)(=O)N2C)cc1OC	103	89	105	-89
CCOC(=O)c1[nH]c(CN(C)Cc2nc3ccccc3c(=O)[nH]2)c(C(=O)OCC)c1C	115	105	.	22
CC1(C)CC(=O)C2=C(C1)OC(N)=C(C#N)C2c1ccoc1 (stereo unspecified)	89	94	.	-2
Cc1cc(N2C(=O)CSC23C(=O)Nc2ccccc23)ccc1Cl (stereo unspecified)	.	.	102	-19
CCCCc1ccc(NC(=O)c2c(Cl)nc3sccn23)cc1	102	94	.	-6
Cc1cc(C)c(Cn2c3ccccc3c3cnn(CC(=O)NCCCc4ccccc4)c(=O)c32)c(C)c1	106	97	109	13
CCSCC1COC(c2cccn2Cc2ccccc2Br)=N1 (stereo unspecified)	.	.	106	-29
CCOC(=O)/C=C(\C)Nc1cccc(N/C(C)=C/C(=O)OCC)c1C	93	87	101	-21
O=C(O)c1c(CN2CCN(c3ccccc3)CC2)c(O)c2ccccc2c1O	53	24	.	-72
CC1(C2(O)CCCCC2)NCCc2ccccc21 (stereo unspecified)	91	93	98	-4
CN(C)c1ccc(NC(=O)c2c3c(nc4ccccc24)CCCC3)cc1	104	94	.	-9
COc1ccccc1OCC(=O)Nc1c(C(=O)c2ccc(C)cc2)oc2ccccc12	91	91	100	-14
Cc1cccc(NC(=O)CSc2nnc(-c3cccs3)o2)c1	90	84	93	2
CN=C(C)/C(C(=O)OC)=C(/O)c1ccc(Cl)cc1Cl	99	89	101	.
COC(=O)c1cc(C(=O)Nc2ccc(Cl)cc2)c(=O)[nH]c1C	.	.	106	-13
COc1cc(CO)ccc1Oc1nnnn1-c1ccc(C(N)=O)cc1	107	82	96	.
Fc1ccccc1N1CCN(c2nc(CN3CCOCC3)nc3sc4c(c23)CCCC4)CC1	82	77	.	-20
COCCNC(=O)c1ccc(CN2CCOCC2)cc1	88	84	101	-15
O=c1cc(-c2ccccc2)nc(N2CCc3ccccc32)[nH]1	89	101	108	-29
Cc1ccc(Nc2c(-c3ccsc3)nc3c(C)cccn23)cc1	95	89	99	2
CCCOC(=O)c1sc2nc3c(cc2c1N)CN(Cc1ccccc1)CC3	.	.	100	-27
CCCNC(=O)C12CC3CC(C1)CC(C(=O)NCCC)(C3)C2	102	91	.	8
COc1ccc(C(=O)NCC(=O)OC2CCOC2=O)cc1 (stereo unspecified)	107	95	.	-17
CC1=C(c2ccc(C)cc2)S(=O)(=O)N(Cc2ccc(C(=O)NCc3ccccc3)cc2)C1=O	89	82	100	.
O=C(c1ccccc1)N1CCN(c2cc(C(F)(F)F)nc3ccccc23)CC1	99	85	102	-4
CCn1ccc2cc(S(=O)(=O)N3CCCN(C(=O)Nc4ccc(C)c(C)c4)CC3)ccc21	.	.	103	1
Cc1ccccc1Nc1nc(CN2CCN(S(=O)(=O)c3ccccc3C#N)CC2)cs1	106	94	.	9
COc1ccc(C2=N/C(=C\c3cn(C(C)=O)c4ccc(Br)cc34)C(=O)O2)cc1[N+](=O)[O-]	.	.	108	-1
CC(Oc1ccc(Cl)cc1Cl)C(=O)NCCN1CCOCC1 (stereo unspecified)	106	83	.	-8
O=C(NCCCN1CCOCC1)c1cc(-c2cccnc2)nc2ccccc12	.	.	110	-65
O=C(NC1CCCCC1)C1CC(=O)N(Cc2ccccc2)C1 (stereo unspecified)	105	74	100	10
CCOC(=O)N1CCC(n2c(SCC(=O)Nc3ccc(C)cc3)nc3ccccc3c2=O)CC1	106	81	98	.
CCOC(=O)c1c(NC(=O)c2ccc(OC)c(OC)c2)sc2c1CCCCC2	94	89	108	-59
COc1ccc(-c2cc(C(F)(F)F)nc(SCCC(=O)Nc3c(C)cccc3C)n2)cc1	95	89	96	-21
CCOC(=O)c1c(NC(=O)C23CC4CC(CC(C4)C2)C3)sc(C(=O)Nc2ccccc2OC)c1C	.	.	108	-15
CC1CC(C)CN(C(=O)COC(=O)c2ccc(S(=O)(=O)N(C)C)cc2)C1 (stereo unspecified)	82	88	.	-20
COc1ccccc1CCNC(=O)C1CCN(c2nnc(-n3cccc3CNc3ccc(C)cc3)s2)CC1	110	92	99	-2
Cn1ncc2c(NCc3ccc(F)cc3)ncnc21	115	88	104	.
N#Cc1cn[nH]c1C(F)(F)F	.	.	104	-8
COC(=O)c1ccccc1NC(=O)c1cc(-c2ccc(C)s2)nc2ccccc12	.	.	107	-19
COc1ccc(N2CCN(S(=O)(=O)CCNC(=O)C(c3ccccc3)c3ccccc3)CC2)cc1	107	87	108	.
O=C(CN1C(=O)/C(=C/c2ccccc2)SC1=S)NC1CCCC1	95	92	106	.
CC(=O)NCCc1nc2cc(NC(=O)COc3cc(C)ccc3C(C)C)ccc2n1C	.	.	103	-13
Further records follow:
SMILES	Sa growth 42C	Sa growth 42C second temp	GIV Gai3 FP	HCMV UL50-53 inh
CC(=C1C(=O)c2ccccc2C1=O)N1CCC(Cc2ccccc2)CC1	123	80	104	.
Cc1ccc2c(c1)C(Cc1sccc1C)C(=O)N2 (stereo unspecified)	.	.	105	-15
O=C(Cn1sc2ccccc2c1=O)N1CCN(C(=O)c2ccco2)CC1	97	84	100	.
COc1ccc(C(=O)Nc2nnc(SCc3cc(=O)c4cc(C)ccc4[nH]3)s2)cc1OC	93	91	104	.
CCCCn1c2ccccc2c2n[nH]c(=S)nc21	87&90	72&69	102&96	-58&-54
O=C(Cn1c2ccccc2c(=O)c2ccccc21)Nc1cc(Oc2ccc(Cl)c(Cl)c2)cc([N+](=O)[O-])c1	.	.	105	-24
CCS(=O)(=O)c1ccc(O)c(NC(=O)c2cccs2)c1	118	89	92	-5
COc1ccc(S(=O)(=O)NCCSc2nnnn2-c2ccccc2)cc1OC	104	103	109	15
Nc1[nH]nc2nc(N3CCCC3)nc(-c3ccccc3)c12	107	94	98	.
CCOc1ccccc1CNC(=O)c1cnc2sc(N3CCOCC3)nn2c1=O	96	92	100	.
Cc1ccc(C(=O)N/C(=C/c2ccco2)C(=O)Nc2ccc(C(=O)O)cc2)cc1	80	79	113	-26
COc1ccc(-n2nc3ccc(NC(=O)COc4ccc(C)c(C)c4)cc3n2)cc1	100	92	103	-16
CCOc1ccc(-n2nnc(C(=O)Nc3ccc(S(N)(=O)=O)cc3)c2C)cc1	.	.	102	-20
Cn1cc(C(=O)Nc2ccc(Br)cc2F)c2[nH]c(=O)n(-c3ccccc3)c(=O)c21	.	.	101	-17
CN(C)c1ccc(CNc2ncnc3c(-c4ccccc4)noc23)cc1	.	.	106	-26
CCOC(=O)C1CCCN(c2nc3c(S(=O)(=O)c4ccc(CC)cc4)nnn3c3ccc(Cl)cc23)C1 (stereo unspecified)	111	82	107	-11
CCOC(=O)c1ccc(N2CCN(c3cc(Cl)ccc3C)CC2)c(NC(=O)Nc2cccc(OC)c2)c1	111	91	105	.
Nc1nc(SC/C=C/c2ccccc2)nc2sc3c(c12)CCC3	.	.	103	-7
CCn1c(N2CCCCCC2)nc2c1c(=O)[nH]c(=O)n2C	86	91	104	-10
CC(=O)NC1C(=O)N=C(SCC(=O)Nc2cccc(Cl)c2)NC1=O (stereo unspecified)	102	100	97	-6
Cc1cccc(N(C)C(=S)Oc2ccc3ccccc3c2)c1	99	94	.	-7&5&-11
COc1ccc(C(NC(=O)/C=C\c2ccco2)c2cc(OC)c(OC)cc2Br)cc1OC (stereo unspecified)	112	95	109	-1
COc1cc(-c2nc(Cn3nnc(C(=O)Nc4ccccc4)c3C)c(C)o2)cc(OC)c1OC	104	88	102	-7
c1ccc(NCC2COc3ccccc3O2)nc1 (stereo unspecified)	94	81	.	-13
CN(C(=O)COC(=O)c1ccc(CN2CCCC2=O)cc1)c1ccccc1	102	84	.	5
COc1cc(Nc2nc(SCC(=O)c3ccc(Cl)c(Cl)c3)nc3ccccc23)cc(OC)c1	115	63	107	.
CCCN1CCN(C(=O)Cn2cnc3sc(C)c(S(=O)(=O)N4CCC(C)CC4)c3c2=O)CC1	89	85	102	.
COC(=O)CCNc1ccc(OC)cc1	90	105	103	4
COc1ccc(CCNS(=O)(=O)c2cc(-c3cc(C)no3)ccc2C)cc1OC	81	87	102	.
CCOC(=O)Cn1nnnc1C(C(C)C)N(Cc1ccc(F)cc1)Cc1cc2cc3c(cc2[nH]c1=O)OCO3 (stereo unspecified)	103	95	103	-14
CCCN=CC1=C(O)CC(c2ccccc2)CC1=O (stereo unspecified)	104	96	107	9
O=C(Nc1ccccc1)OCc1cc(-c2ccc(Cl)cc2)oc1C(F)(F)F	92	100	103	-2
O=C1c2ccc([N+](=O)[O-])cc2S(=O)(=O)N1Cc1ccccc1	.	.	105	-32
O=C(NCC1CCCO1)c1ccc(Cn2c(SCc3ccc(F)cc3)nc3cccnc32)cc1 (stereo unspecified)	.	.	102	-22
O=C(Nc1cccc(C(=O)NC2CCCC2)c1)C1=CSCCO1	97	88	101	-24
COC(=O)CCCc1cccs1	91	93	.	-5

Four entries from above in another layout:
mol: CCCN=CC1=C(O)CC(c2ccccc2)CC1=O (stereo unspecified)
  Sa growth 42C: 104 | Sa growth 42C second temp: 96 | GIV Gai3 FP: 107 | HCMV UL50-53 inh: 9
mol: CN(C(=O)COC(=O)c1ccc(CN2CCCC2=O)cc1)c1ccccc1
  Sa growth 42C: 102 | Sa growth 42C second temp: 84 | GIV Gai3 FP: . | HCMV UL50-53 inh: 5
mol: COc1ccc(CCNS(=O)(=O)c2cc(-c3cc(C)no3)ccc2C)cc1OC
  Sa growth 42C: 81 | Sa growth 42C second temp: 87 | GIV Gai3 FP: 102 | HCMV UL50-53 inh: .
mol: COC(=O)CCCc1cccs1
  Sa growth 42C: 91 | Sa growth 42C second temp: 93 | GIV Gai3 FP: . | HCMV UL50-53 inh: -5

Part of the list above, limited to HCMV UL50-53 inh:
| SMILES | HCMV UL50-53 inh |
| --- | --- |
| O=C(Nc1ccccc1)OCc1cc(-c2ccc(Cl)cc2)oc1C(F)(F)F | -2 |
| O=C1c2ccc([N+](=O)[O-])cc2S(=O)(=O)N1Cc1ccccc1 | -32 |
| O=C(NCC1CCCO1)c1ccc(Cn2c(SCc3ccc(F)cc3)nc3cccnc32)cc1 (stereo unspecified) | -22 |
| O=C(Nc1cccc(C(=O)NC2CCCC2)c1)C1=CSCCO1 | -24 |

Next part.
SMILES	Sa growth 42C	Sa growth 42C second temp	GIV Gai3 FP	HCMV UL50-53 inh
CCCCCCCCCCCCCCCC(=O)OC/C=C(C)/C=C/C=C(C)/C=C/C1=C(C)CCCC1(C)C	86	94	.	-119
CCn1c(=O)c(SCC(=O)NC2CCCC2)nc2ccccc21	.	.	111	-23
Cc1ccc(N2CC(C(=O)Nc3ccc(Br)cc3)CC2=O)cc1 (stereo unspecified)	95	98	101	.
CCCC/C(O)=C/c1nc2ccccc2[nH]c1=O	99	96	103	.
CC(C)(C)OC(=O)CSc1nc2ccccc2o1	83	93	.	-20
CCN(CC)S(=O)(=O)c1cc(Br)ccc1OC	110	92	100	-10
COc1ccc(Cn2c(CO)cnc2SCc2cccc(C)c2)cc1	110	95	106	.
CN(C)c1ccc(C(CN)c2c[nH]c3ccccc23)cc1 (stereo unspecified)	91	64	.	-36
CC1NC(=S)N(C2CC2)C1=O (stereo unspecified)	96	60	.	-22
COC(=O)c1ccc(COC(=O)C2Cc3ccccc3CN2C(=O)c2ccco2)cc1 (stereo unspecified)	81	85	.	-10
CCN(CC(N)=O)S(=O)(=O)c1ccc(Br)cc1	104	93	105	-8
